Source: PubChem BioAssay
GIRK2 act: activators of human GIRK2 potassium channels; G protein-activated inward rectifier potassium channel 2 (Homo sapiens), P48051; HEK293-GIRK2 thallium flux, Thallos fluorescence; calls only for hits at 25 µM; 0.05% of 63,000 active;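 active = among the strongest 0.2% of first-round signals and kept after retests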;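 note: first round at about 10 µM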
Target sequence (P48051 whole entry, looked up): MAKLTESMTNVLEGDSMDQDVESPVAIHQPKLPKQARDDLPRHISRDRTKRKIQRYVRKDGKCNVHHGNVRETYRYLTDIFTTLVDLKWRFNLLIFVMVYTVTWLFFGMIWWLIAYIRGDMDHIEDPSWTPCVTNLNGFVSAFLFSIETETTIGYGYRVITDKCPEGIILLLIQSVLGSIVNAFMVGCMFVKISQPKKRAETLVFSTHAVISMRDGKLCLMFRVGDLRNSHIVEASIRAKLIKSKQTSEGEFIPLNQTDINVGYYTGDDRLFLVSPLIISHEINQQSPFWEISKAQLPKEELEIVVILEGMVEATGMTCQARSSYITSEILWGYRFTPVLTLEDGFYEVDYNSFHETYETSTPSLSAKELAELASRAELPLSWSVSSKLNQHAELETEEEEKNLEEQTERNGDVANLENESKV
Calls only; i = inactive. A portion of the library (hit frequency here may not be typical).

SMILES	GIRK2 act
O=C(c1c(F)cccc1F)N1CCN(CC(O)C2CC2)CC1 (stereo not given)	i
Cc1cccc(NC(=O)NNC(=O)c2cccn(Cc3cccc(F)c3)c2=O)c1	i
CCN1CCN(C(c2ccc(Br)cc2)c2sc3nc(C)nn3c2O)CC1 (stereo not given)	i
CCOc1ccccc1-n1c(C)cn2c3c(=O)n(C(C)C(C)=O)c(=O)n(C)c3nc12 (stereo not given)	i
O=C(NC1CCN(C(=O)c2cc(-c3ccc(F)cc3)n[nH]2)CC1)c1ccc2c(c1)OCO2	i
COc1cccc(-c2nnc(NC(=O)c3ccc(OC)c(OC)c3)o2)c1	i
CCC=CCC1C(=O)CCC1CC(=O)NC(C(=O)O)C(C)C (stereo not given)	i
Cc1cc(C)nc(NC(=O)c2cccc(S(=O)(=O)N3CCCCCC3)c2)n1	i
CCN(CC)CCN1C(=O)C(=O)C(=C(O)c2cccc(OC)c2)C1c1ccccn1 (stereo not given)	i
O=C(NCCCc1ccccc1)N1CCN(CC(O)c2ccco2)CC1 (stereo not given)	i
O=S(=O)(NCCC(O)c1ccoc1)c1cccs1 (stereo not given)	i
CN(C)S(=O)(=O)c1ccc(C(=O)N2CCC3(CC2)OCCS3)cc1	i
O=C(Nc1cnc(Oc2ccccc2F)nc1)Nc1cccc(C(F)(F)F)c1	i
O=C(Nc1ccc(-n2nnc(C(=O)NC3CCCC3)n2)cc1)Nc1ccc2c(c1)OCO2	i
O=S(=O)(c1ccc(Br)s1)N1CC(c2nc(-c3cccc(Cl)c3)no2)C1	i
O=C(Cn1nc(-c2cccs2)c2sc(N3CCOCC3)nc2c1=O)c1ccc2ccccc2c1	i
COc1ccc(S(=O)(=O)NCCNc2cc(Nc3ccccn3)nc(C)n2)cc1OC	i
Fc1ccc(Br)cc1CN1CC(c2nc(-c3cccs3)no2)C1	i
CCc1nnc2sc(-c3cc(C)nc4ccc(Br)cc34)nn12	i
COc1ccc(C(=O)N2CCc3cc(S(=O)(=O)NC4CCCC4)ccc32)c(OC)c1	i
CNC(=O)c1sc(-n2cnc3cc(OC)c(OC)cc32)cc1OCc1ccccc1C(F)(F)F	i
CC(C)(C)C(=O)Nc1nc(-c2cc3ccccc3o2)cs1	i
CCc1ccc(CNC(=O)c2cc(-c3sc(C)nc3C)[nH]n2)cc1	i
O=C(Nc1ccc2c(c1)OCO2)C1CCCN(c2ccc(-c3ccc(F)cc3)nn2)C1 (stereo not given)	i
Cn1nnn(-c2ccc(NC(=O)C3CC=CCC3)cc2)c1=O (stereo not given)	i

Retrieved one by one from the list above:
SMILES	GIRK2 act
O=C(Nc1ccc(-n2nnc(C(=O)NC3CCCC3)n2)cc1)Nc1ccc2c(c1)OCO2	i
CCC=CCC1C(=O)CCC1CC(=O)NC(C(=O)O)C(C)C (stereo not given)	i
Cn1nnn(-c2ccc(NC(=O)C3CC=CCC3)cc2)c1=O (stereo not given)	i
COc1ccc(C(=O)N2CCc3cc(S(=O)(=O)NC4CCCC4)ccc32)c(OC)c1	i
CCc1ccc(CNC(=O)c2cc(-c3sc(C)nc3C)[nH]n2)cc1	i

Back to the main list; the 4 compounds before the break are reprinted first.
SMILES	GIRK2 act
CC(C)(C)C(=O)Nc1nc(-c2cc3ccccc3o2)cs1	i
CCc1ccc(CNC(=O)c2cc(-c3sc(C)nc3C)[nH]n2)cc1	i
O=C(Nc1ccc2c(c1)OCO2)C1CCCN(c2ccc(-c3ccc(F)cc3)nn2)C1 (stereo not given)	i
Cn1nnn(-c2ccc(NC(=O)C3CC=CCC3)cc2)c1=O (stereo not given)	i
CCCN1C(SCC(=O)Nc2cccc(C(C)=O)c2)=NS(=O)(=O)c2ccccc21	i
C=CCCCCCCCCC1C(=O)OC(C(=O)O)C1(O)C(=O)O (stereo not given)	i
COc1ccc(N2C(=O)C3N=NN(CC(=O)Nc4ccccc4)C3C2=O)cc1 (stereo not given)	i
O=C(NCC#CCN1CCOCC1)c1cc(-c2ccccc2)on1	i
CCOc1ccc(-c2noc(CS(=O)(=O)c3cc(C)c(C)cc3C)n2)cc1	i
CS(=O)(=O)N1CCCc2cc(NS(=O)(=O)c3ccc4c(c3)OCCO4)ccc21	i
CSc1nnc(-c2ccccc2NC(=O)c2ccc(Cl)c(S(=O)(=O)N3CCOCC3)c2)o1	i
O=C(NCc1ccco1)C1CCN(c2ncccc2-c2nc(-c3ccccc3)no2)CC1	i
Cc1c(Cl)cccc1S(=O)(=O)NCC#CCN1CCOCC1	i
CCOc1ccc2nc(NC(=O)c3nnn(-c4ccc(F)cc4)n3)sc2c1	i
O=C1OC2CC1N(C(=O)COc1ccccc1F)C2 (stereo not given)	i
C=CCNC(=O)c1ccc2c(=O)n(Cc3ccccc3Cl)c(=S)[nH]c2c1	i
O=C(NCCC(O)c1cccs1)C(=O)Nc1ccc2c(c1)CCCN2C(=O)c1cccs1 (stereo not given)	i
Cc1cc(C)n(-c2cc(N3CCN(C(=O)COc4ccc(Cl)cc4)CC3)nc(C)n2)n1	i
Cn1nc(CNC(=O)c2ccc3c(c2)OCO3)cc1-c1ccccn1	i
O=C(CN1CC(c2nc(-c3cccs3)no2)C1)Nc1nccs1	i
COCCNC(=O)c1ccc(CNS(=O)(=O)c2cc(C)ccc2C)cc1	i
COc1ccc(S(=O)(=O)N(C)c2ccsc2C(=O)NCc2ccccc2)cc1	i
COC(=O)c1ccc(C(=O)Nc2nnc(-c3sc(C)nc3C)o2)cc1	i
CN(C)S(=O)(=O)N1CCC(CSc2ccccn2)CC1	i
O=C(NC1CCCC1)c1ccc(Oc2nccnc2N2CCOCC2)cc1	i
CSc1ccccc1CN1CCC(CNC(=O)C(=O)NCC(F)(F)F)CC1	i
O=C(C1CCN(S(=O)(=O)c2ccc(F)cc2)CC1)N1CCN(c2ccccc2)CC1	i
CC(=O)c1ccc(NC(=O)Cn2cccc(-c3nc(-c4ccccc4)no3)c2=O)cc1	i
COC(=O)c1ccc(S(=O)(=O)N2CCC(Oc3nc4ccccc4s3)CC2)cc1	i

New compounds follow.
SMILES	GIRK2 act
CCn1c(SCC(=O)N2CCc3ccccc3C2)nc2c3cc(OC)ccc3n(C)c2c1=O	i
Cc1cccc(CS(=O)(=O)N2CCC(COCc3ccc(C#N)cc3)CC2)c1	i
CCCCn1c(=O)[nH]c2c(C(=O)N3CCCC(C)C3)snc2c1=O (stereo not given)	i
COC1OC(OC)C(O)(CCC2(C)C(C)CCC3(C)C2CC(O)C(O)C32CO2)C1O (stereo not given)	i
CCc1cnc2c(c1SCc1cccc([N+](=O)[O-])c1)c(=O)n(C)c(=O)n2C	i
N#Cc1cccc(Cn2cccc2-c2nc(-c3ccc(Br)cc3)no2)c1	i
Cc1cc(NCc2ccccn2)n2nc(C(F)(F)F)c(-c3ccc(Cl)cc3)c2n1	i
COc1ccc(CCC(=O)Nc2ccc3c(c2)N(C(=O)c2ccccc2)CCC3)cc1	i
COc1ccc(-c2noc(Cn3c(=O)n(-c4ccc(C)c(C)c4)c(=O)c4ccccc43)n2)cc1OC	i
Cc1cc(N)nc(Nc2ccccc2C)n1	i
COc1nn(C)cc1C(=O)NCCC(O)c1cc(C)oc1C (stereo not given)	i
CCC(=O)Nc1ccc(Br)cc1-c1nc2ccccc2[nH]c1=O	i
O=C(NCC1COC2(CCCCC2)O1)c1ccc(OC(F)(F)F)cc1 (stereo not given)	i
COc1ccccc1S(=O)(=O)NCC(c1cn(C)c2ccccc12)N(C)C (stereo not given)	i
Cc1cc(NS(=O)(=O)Cc2ccc(C(F)(F)F)cc2)ccc1N1CCCCC1=O	i
Cc1ccc(=O)n(C(C)C(=O)NCCc2ccccc2)n1 (stereo not given)	i
COc1ccc(N2C(=O)C3N=NN(Cc4ccc(Cl)cc4)C3C2=O)cc1Cl (stereo not given)	i
O=C(NCc1cccs1)Nc1cc(N2CCOCC2)ncn1	i
COCC1CCCN(Cc2ccccn2)C1 (stereo not given)	i
Cc1cc(C(=O)N2CCC(C(=O)Nc3nccs3)CC2)c(C)o1	i
O=C(Cn1nc2c(c1NC(=O)c1cccs1)CSC2)NCc1ccccc1	i
Cc1cn2c3c(=O)n(CCCc4ccccc4)c(=O)n(C)c3nc2n1CCN1CCOCC1	i
CN(CC(=O)Nc1nc(-c2cccnc2)cs1)c1nc2ccccc2s1	i
CCc1nc(-c2ccc(N3CCN(C(=O)c4cnn(-c5ccccc5)c4C)CC3)nc2)no1	i
CC1CCN(C(=O)c2cc(=O)c(OCc3ccc(F)cc3)co2)CC1	i

Other compounds follow:
SMILES	GIRK2 act
CCCCC[C@@H](O)/C=C/[C@H]1[C@H](O)CC(=O)[C@@H]1CCCCCCC(=O)O	i
O=C(c1ccc(Br)o1)N1CCN(c2ncnc3c2nnn3-c2ccc(Cl)cc2)CC1	i
CC1(C)Cc2cccc(OCC(=O)N3CCc4nc(NC(=O)C5CC5)sc4C3)c2O1	i
CS(=O)(=O)N1CCC(C(=O)N2CCN(C(=O)C3CC3c3ccc(F)cc3)CC2)CC1 (stereo not given)	i
CCCCc1ccc(S(=O)(=O)c2cnc(SCC(=O)Nc3ccc(F)cc3)[nH]c2=O)cc1	i
COC(=O)c1sccc1S(=O)(=O)NCc1cc(-c2ccncc2)n(C)n1	i
O=C(NCC1(O)CCOc2ccccc21)c1ccccc1Cl (stereo not given)	i
COc1ccccc1CCNC(=O)CC1CCCCN1S(=O)(=O)c1ccc(Cl)cc1 (stereo not given)	i
Brc1cccc(-c2nc3n(n2)Cc2ccccc2C32CCOCC2)c1	i
O=C(NCc1ccccc1)c1ccc2c(=O)nc3c(-c4ccc(Cl)cc4)n[nH]n3c2c1	i
C=CCn1c(=O)c2ccc(C(=O)NC(C)CC)cc2n2c(=O)n(CC(N)=O)nc12 (stereo not given)	i
C=CCOC(=O)C1=C(C)NC(=O)NC1c1ccccc1Cl (stereo not given)	i
COCCN(Cc1ccoc1)C(=O)C1c2ccccc2Oc2ccccc21	i
O=C(NCc1nc2ccccc2[nH]1)c1ccsc1	i
O=C(c1ccc2c(c1)OCO2)N1CC(c2nc(-c3ccccc3)no2)C1	i
COc1ccc(S(=O)(=O)N2CCN=C2SCc2ccc(Cl)cc2)cc1	i
CCN(C(=O)c1cc2c(=O)n(C)c(=O)n(C)c2n1CCOC)c1ccccc1C	i
O=S(=O)(c1ccc(Br)s1)N1CCN(S(=O)(=O)C2CC2)CC1	i
COc1cccc(N2CC(C(=O)NCCc3csc(-n4nc(C)cc4C)n3)CC2=O)c1 (stereo not given)	i
CN(CCC#N)C(=O)C(=O)c1c[nH]c2ccccc12	i
O=C(c1cccs1)N1CCCC(c2nnc(Cc3ccc(F)cc3)o2)C1 (stereo not given)	i
COc1ccc(-c2nc(-c3nnn(Cc4ccccc4)c3C)no2)c(OC)c1	i
CCOC(=O)c1ccc(Nc2n[nH]c3nnc(C)c(=O)n23)cc1	i
COc1ccccc1CNC(=O)CSc1nc2c(-c3ccccc3)c[nH]c2c(=O)n1C1CC1	i
O=C(CCCn1cccc1)N1CCN(C(=O)c2ccco2)CC1	i

Continuation:
SMILES	GIRK2 act
O=C(NCCCc1ccccc1)N(Cc1ccoc1)Cc1cccs1	i
CCS(=O)(=O)N1CCCc2cc(NC(=O)/C=C/c3ccco3)ccc21	i
COc1ccc(CCNC(=O)c2csc3nc(-c4ccc(F)cc4)cn23)cc1OC	i
Cn1c(=O)c2c(ncn2CC(=O)Nc2ccc(OCc3ccccc3)cc2)n(C)c1=O	i
CCOc1ccc(NC(=O)CSc2n[nH]c(N)n2)cc1	i
C#CC(C)(CC)OCC(O)CN1CCCC1 (stereo not given)	i
Cc1ccccc1-c1csc2c(=O)[nH]c(N3CCCC(C(=O)O)C3)nc12 (stereo not given)	i
O=C1c2oc3ccc(Br)cc3c(=O)c2C(c2cccc(F)c2)N1CCO (stereo not given)	i
Cc1nc(C)c(C(=O)Nc2ccc3nc(C)n(-c4ccccc4)c(=O)c3c2)s1	i
CCOC(=O)NCC1CCN(C(=O)c2ccoc2)CC1	i
CCOCCCNS(=O)(=O)c1cc(Cl)c(C)cc1OC	i
O=C(CN1C(=O)CCC1=O)NCC(O)C1CCCCC1 (stereo not given)	i
O=C(c1ccc2c(c1)OCO2)N1CCC(CSCc2ccco2)CC1	i
COc1ccc(OC)c(-n2c(-c3ccccc3)cn3c4c(=O)n(CC(N)=O)c(=O)n(C)c4nc23)c1	i
CCc1nc2sc(C(c3ccccc3Cl)N3CCCC(C)C3)c(O)n2n1 (stereo not given)	i
COc1cccc2sc(N(C)CC(=O)NCc3nc(C)no3)nc12	i
CCCc1noc(-c2ccnc(-n3ncc(C(=O)Nc4ccc(C)c(F)c4)c3C)c2)n1	i
COc1ccc(N/C=C(\C#N)c2nc(-c3ccc([N+](=O)[O-])cc3)cs2)cc1OC	i
CCN(CC)C(=O)c1cnc2nc(C)ccc2c1Nc1cc(OC)c(Cl)cc1OC	i
CCCN1C(=O)CCc2cc(NC(=O)c3ccc(OCC)cc3)ccc21	i
CN(CCO)CC1COCCN1C(=O)C1CC1 (stereo not given)	i
CCCS(=O)(=O)N1CCN(c2cc(Nc3cc(C)ccn3)nc(C)n2)CC1	i
Cc1nc(C)c(C(=O)N2CCCC(c3nnc(-c4cccs4)o3)C2)s1 (stereo not given)	i
O=C1CC(c2nc(-c3ccccc3Cl)no2)CN1c1ccc2c(c1)OCO2 (stereo not given)	i
COc1ccccc1-c1ccc(N2CCN(S(=O)(=O)/C=C\c3ccccc3)CC2)nn1	i
COC(=O)c1ccc2c(=O)n(CC(=O)NCCC(C)C)c(=S)[nH]c2c1	i

A different layout for 6 compounds above:
Compound | GIRK2 act
COC(=O)c1sccc1S(=O)(=O)NCc1cc(-c2ccncc2)n(C)n1 | i
Fc1ccc(Br)cc1CN1CC(c2nc(-c3cccs3)no2)C1 | i
O=C(NCc1ccco1)C1CCN(c2ncccc2-c2nc(-c3ccccc3)no2)CC1 | i
Cc1ccc(=O)n(C(C)C(=O)NCCc2ccccc2)n1 (stereo not given) | i
CS(=O)(=O)N1CCC(C(=O)N2CCN(C(=O)C3CC3c3ccc(F)cc3)CC2)CC1 (stereo not given) | i
COc1ccccc1S(=O)(=O)NCC(c1cn(C)c2ccccc12)N(C)C (stereo not given) | i
